# ALR H2O2 inh – inhibitors of human ALR sulfhydryl oxidase, primary screen, biochemical, H2O2 detection, HRP-luminol luminescence, single point | purified ALR, DTT oxidation | inhibition, % (no concentration beside the values) | hit rate 3.8% among 290,000 | AID 485317, 2010;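 active = mean and each replicate at 75% or more; inconclusive = only one of the two met; inactive = neither met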;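 also: stock transfer was 7.5 nL into about 7.5 µL; 0% = neutral wells and 100% = wells with inactivated enzyme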
# Target sequence (P55789 whole entry, looked up): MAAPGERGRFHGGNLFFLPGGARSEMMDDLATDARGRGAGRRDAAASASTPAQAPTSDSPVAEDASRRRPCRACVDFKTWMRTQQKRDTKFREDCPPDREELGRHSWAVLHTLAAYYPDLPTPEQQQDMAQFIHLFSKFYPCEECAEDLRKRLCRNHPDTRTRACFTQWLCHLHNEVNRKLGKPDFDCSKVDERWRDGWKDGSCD
# Beta2AR agonist – beta2AR agonists driving receptor internalization, primary screen, cell-based, FAP fluorogen, flow cytometry; Beta-2 adrenergic receptor (Homo sapiens), P07550; Am2.2-beta2AR cells; reference of the scale not given here; response, % (no concentration beside the values); hit rate 0.43% among 340,000; AID 504454, 2011;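 active = response above a set limit, near 3 SD of response in nonfluorescent compounds, cut at about 42% in these data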;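 also: stock transfer was 100 nL into about 11 µL; a reference agonist was the positive control; negative values mostly stem from fluorescent compounds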
# UCH37 inh – inhibitors of human UCH37 deubiquitinase, primary screen, biochemical, Ub-AMC cleavage, fluorescence; Ubiquitin carboxyl-terminal hydrolase isozyme L5 (Homo sapiens), Q9Y5K5; purified proteasome/UCH37; inhibition, % (no concentration beside the values); hit rate 0.33% among 330,000; AID 588478, 2011;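 active = mean of two replicates above 20%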;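 also: 0% = compound-free wells with enzyme and 100% = wells lacking proteasome; stock transfer was 100 nL into about 20 µL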
#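 Material: Human UCH37 enzyme supplied as purified proteasome complex | Schedule: 30 min compound-proteasome preincubation then 25 min substrate reaction, room temperature | Detection: AMC fluorescence from Ub-AMC cleavage, excitation 355 nm, emission 460 nm | Benchmarks: Wells without proteasome as full block, compound-free enzyme plus substrate as uninhibited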
# Ecoli rRNA inh – reduced GFP signal of wild-type E. coli, primary screen, bacterial rRNA inhibitor project, GFP/RFP fluorescence, OD600, single point. E. coli WT GFP vs humanized-ribosome RFP mutants, 24 h; stronger effect = lower value; DMSO median 0, no signal -100. GFP signal change (wild-type ribosome), % (test concentration not listed). hit rate 1.6% among 350,000. AID 720706, 2013;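 active = significant combined selectivity score with lowered wild-type GFP, culture density cut under 30%, mutant RFP and density less affected; inactive = any of these conditions unmet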; also: one replicate is shown; some compounds called inactive have numbers as strong as hits
# HNF4A DNA FP – change in binding of human HNF4A to DNA, primary screen, biochemical, fluorescence polarization, FITC-DNA. Hepatocyte nuclear factor 4-alpha (Homo sapiens), P41235. 1 h. activity change, % at 10 µM. hit rate 0.3% among 360,000. AID 1224865, 2016; in the data active = activity change above about 30%, passing the limit was not always enough;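 also: controls were the assay level and a saturating level of protein; the project sought stronger binding though the title names inhibitors; some compounds called inactive have numbers as strong as hits; positive values seem to mean higher polarization but the record does not say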
# Target sequence (P41235 whole entry, looked up): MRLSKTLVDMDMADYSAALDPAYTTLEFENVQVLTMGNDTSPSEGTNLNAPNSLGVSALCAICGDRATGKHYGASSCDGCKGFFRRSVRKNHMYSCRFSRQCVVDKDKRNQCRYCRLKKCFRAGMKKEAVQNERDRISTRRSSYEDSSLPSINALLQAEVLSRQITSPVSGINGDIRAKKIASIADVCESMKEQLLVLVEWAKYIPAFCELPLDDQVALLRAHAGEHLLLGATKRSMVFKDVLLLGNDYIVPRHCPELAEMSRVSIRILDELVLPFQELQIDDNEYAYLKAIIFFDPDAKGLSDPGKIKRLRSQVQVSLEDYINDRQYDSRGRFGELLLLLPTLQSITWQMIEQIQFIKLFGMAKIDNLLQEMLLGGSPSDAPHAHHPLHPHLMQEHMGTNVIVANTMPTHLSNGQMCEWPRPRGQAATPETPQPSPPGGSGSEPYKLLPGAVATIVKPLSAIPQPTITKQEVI
# FGF22 binding – binders of human FGF22 protein, primary screen, FGF22 synaptogenesis inhibitor project, biophysical, thermal shift, single point; Fibroblast growth factor 22 (Homo sapiens), Q9HCT0; recombinant FGF22 thermal shift, SYPRO orange fluorescence; percent of sucrose octasulfate shift, DMSO zero; calls only at 9.99 µM; hit rate 1.5% among 340,000; AID 651658, 2012;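 active = melting point raised past a set limit in the mean and every replicate; inconclusive = no clear call; three in four hits are not shown here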
# Target sequence (Q9HCT0 whole entry, looked up): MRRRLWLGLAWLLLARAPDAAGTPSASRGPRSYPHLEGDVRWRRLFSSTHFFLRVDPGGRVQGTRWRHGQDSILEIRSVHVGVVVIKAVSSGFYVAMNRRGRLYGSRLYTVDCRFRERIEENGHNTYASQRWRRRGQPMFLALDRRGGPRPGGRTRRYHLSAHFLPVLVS
# Ecoli growth – E. coli growth inhibition, primary screen, OD600 | Escherichia coli growth, 23 h; stronger effect = lower value | OD600 absorbance (concentration not given with the values) | hit rate 0.21% among 330,000 | AID 1053175, 2014;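 active = OD600 absorbance below the run mean of sample wells minus 3.6 SD, in any replicate, cut at about 0.56 in these data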;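 also: stock transfer was 300 nL into about 60 µL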
# Ecoli rRNA inh OD600 – recorded beside Ecoli rRNA inh, whose call it bears; OD600 change, %; measured here: OD600 growth;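 optical density of the mix in the first replicate; 0 = DMSO median and -100 = no signal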
# Ecoli rRNA inh RFP – recorded beside Ecoli rRNA inh, whose call it bears; RFP signal change, %; measured here: RFP humanized mutant strains;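 first replicate; 0 = DMSO median and -100 = no signal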
# Starred values were filed as active, the others as inactive; i = inactive; ? = inconclusive; nt = no result given; & = joins results of further samples. A portion of the library; the hit share may differ from the screen's.
# Below each SMILES: ALR H2O2 inh	Beta2AR agonist	UCH37 inh	Ecoli rRNA inh	Ecoli rRNA inh OD600	Ecoli rRNA inh RFP	HNF4A DNA FP	FGF22 binding	Ecoli growth
- O=C(CN1CCOc2ccccc21)N1CCN(c2cccc(Cl)c2)CC1
→ ?	2	2.1	-13	-12	0.6	1.5	i	0.63
- OCCC1CN(Cc2cccs2)CCN1Cc1ccccc1 (stereo not drawn)
→ 6	3	1.2	-5	-3	-0.8	1.1	i	0.69
- CN(C)c1oc(-c2ccccc2Cl)nc1S(=O)(=O)c1ccccc1
→ -7	7	0.0	4	5	-0.5	-2.7	i	0.69
- Cn1cc(-c2ccc(C(=O)NCc3cccc(Cl)c3)c3occc23)cn1
→ nt	nt	nt	-13	-3	1.6	-3.7	i	nt
- O=C(COC(=O)Cc1ccsc1)Nc1ccc(Br)cc1F
→ 4	8	5.4	nt	nt	nt	0.7	i	0.68
- CCC(C)[C@H](NC(=O)OC(C)(C)C)c1nnc(SCc2c(C)[nH]c(=O)[nH]c2=O)o1 (stereo partly drawn)
→ -2	-4	3.1	nt	nt	nt	-0.2	nt	nt
- COc1ccc(CCNC(=O)COC(=O)Cc2c[nH]c3ccccc23)cc1OC
→ 0	-1	0.9	-1	2	5.4	-2.7	i	0.66
- Cc1cc(C)nc(SCC(=O)Nc2ncccn2)n1
→ 3	nt	1.0	9	11	-3.1	nt	i	0.64
- CC(SCC(=O)O)c1nc2ccccc2[nH]1 (stereo not drawn)
→ -3	-2	3.7	-19	-32	-13	1.6	i	0.67
- COc1ccc(NC(=O)Cc2nnc(SCC(=O)Nc3cc(C)ccc3OC)n2C)cc1
→ nt	-3	1.7	nt	nt	nt	4.4	nt	0.76
- C[C@H](CO)N1C[C@H](C)[C@H](CN(C)Cc2ccccc2)Oc2ncc(Br)cc2C1=O
→ nt	nt	nt	2&1	9&9	-3.0&-3.2	-0.5	i	nt
- O=C(O)c1ccc(Cl)c(NC(=O)C2CCCN2S(=O)(=O)c2cccc3nsnc23)c1 (stereo not drawn)
→ -13	-4	3.7	nt	nt	nt	-2.3	nt	0.66
- Cc1n[nH]c(=O)n1-c1cccc(C(F)(F)F)c1
→ -8	-4	4.9	nt	nt	nt	3.0	nt	0.71
- O=c1[nH]cccc1-c1nc2ccccc2n1Cc1ccccc1F
→ -7	9	-272	10	11	1.1	7.6	i	0.68
- CCCCOc1ccccc1C(=O)N(Cc1ccc(C)o1)C1CCS(=O)(=O)C1 (stereo not drawn)
→ 0	2	4.7	0	-6	0.1	-0.9	i	0.71
- O=c1ccc(Oc2nc(N3CCOCC3)nc(N3CCOCC3)n2)nn1-c1ccccc1
→ -69	6	1.0	nt	nt	nt	22	nt	0.71
- CCn1nc(C(=O)OCC(=O)NCC(C)C)c2ccccc2c1=O
→ 6	-3	4.4	5	-2	1.0	-3.0	i	0.68
- COCCN(C(=O)c1ccco1)c1nnc(-c2ccc(OC)cc2)s1
→ 1	-8	-16	nt	nt	nt	0.9	nt	0.69
- Cc1ccnc(NS(=O)(=O)c2ccc(NC(=O)C3CCCCC3C(=O)O)cc2)n1 (stereo not drawn)
→ -3	0	1.8	nt	nt	nt	-2.5	nt	0.64
- c1ccc(CC2CCN(C(c3cccs3)c3nnnn3C3CCCC3)CC2)cc1 (stereo not drawn)
→ -5	9	1.6	nt	nt	nt	0.4	nt	0.72
- CCOC(=O)C1=C(C)Nc2ccccc2N=C1NC(=O)Cc1ccc(Br)cc1
→ 0	-7	5.0	8	5	2.0	0.2	i	0.75
- O=C(CN1CCCCCC1)Nc1cccc(NC(=O)CN2CCCCCC2)c1
→ -7	-1	0.5	10	15	1.1	-1.6	i	0.64
- COc1ccc(C)cc1S(=O)(=O)N1CCN(Cc2ccccc2)CC1
→ 1	7	4.1	nt	nt	nt	4.8	nt	0.64
- Cc1ccc(NC(=O)CCN2C(=O)c3ccccc3Sc3ncccc32)cc1
→ 12	14	1.6	0	1	-0.1	6.0	i	0.65
- COc1ccc(NS(=O)(=O)c2ccc(N3CCN(CCO)CC3)c([N+](=O)[O-])c2)cc1
→ -3	-6	2.7	-3	9	0.3	-61	i	0.7
- CC(NC(=O)c1cc(-c2ccc3c(c2)OCO3)nc2ccccc12)C(C)(C)C (stereo not drawn)
→ 4	0	-155	nt	nt	nt	2.1	nt	0.68
- CCCN(CCC)CCNC(=O)C1c2ccccc2C(=O)N(CCOC)C1c1ccc(F)cc1 (stereo not drawn)
→ -12	-1	-1.6	nt	nt	nt	-4.0	nt	0.69
- CC1=NN(c2nc(-c3ccc(C)cc3)cs2)C(=O)C1N=Nc1cccc(C)c1 (stereo not drawn)
→ 26	3	3.3	-14	-9	-5.9	-1.6	i	0.68
- O=C1C=C(c2ccccc2)C[C@@H](c2ccc3c(c2)OCO3)C1
→ 2	-7	-5.6	-16	-30	-14	0.1	i	0.73
- Cn1c(COc2cccc3ccccc23)nnc1SCC(=O)OC1CCCCC1
→ nt	7	7.1	-57	-78	-27	2.3	i	0.63

# More entries follow:
# Below each SMILES: ALR H2O2 inh	Beta2AR agonist	UCH37 inh	Ecoli rRNA inh	Ecoli rRNA inh OD600	Ecoli rRNA inh RFP	HNF4A DNA FP	FGF22 binding	Ecoli growth
- Cc1ccc(Cn2c(C)c(C(=O)NCc3ccccc3C(F)(F)F)sc2=O)cc1
→ nt	nt	nt	5	-8	-6.2	2.5	i	nt
- C#CCn1c(=NC(=O)c2ccco2)sc2cccc(Cl)c21
→ -2	-5	-22	12	21	1.7	3.5	i	0.68
- COc1ccc(N(C(=O)c2snc(C(N)=O)c2N)C(C(=O)NC2CCCC2)c2cccs2)c(OC)c1 (stereo not drawn)
→ -4	0	-9.8	6	0	4.0	2.8	i	0.68
- NC(=O)c1ccc(NC(=O)CCCc2nc(-c3ccccc3Cl)no2)cc1
→ 2	4	2.5	4	3	-2.0	3.5	nt	0.7
- COc1cc2cc(CN(CCO)C(=O)c3cccs3)c(=O)[nH]c2cc1OC
→ -18	13	-26	nt	nt	nt	4.7	nt	0.68
- Cc1csc(NC(=O)c2nn(C)c(C)c2[N+](=O)[O-])n1
→ 1	3	3.2	-46	-45	-12	4.0	i	0.68
- COc1ccccc1CN(C)C(=O)c1cc(-c2cccs2)nc2ccccc12
→ -6	10	-70	-5	-18	2.7	5.3	i	0.72
- O=C1COc2ccc(C(=O)COC(=O)c3ccccn3)cc2N1
→ 11	-1	0.1	15	15	2.8	-0.3	i	0.66
- O=C(NCCCCO)c1c(-c2ccccc2)oc2c1C(OCCCCCO)CCC2 (stereo not drawn)
→ nt	nt	nt	10	9	2.1	2.2	i	nt
- Cc1ccccc1NC(=O)CSc1ccc(-c2ccccn2)nn1
→ -3	-7	0.4	13	13	-0.6	0.8	i	0.71
- O=C(NCc1ccccc1)C1=C[C@@H](c2ccc(C(F)(F)F)cc2)C[C@@H](OCCCCO)O1
→ -8	2	-1.8	1	10	5.0	2.3	i	nt
- CCOC(=O)C1(CCCc2ccccc2)CCN(S(C)(=O)=O)CC1
→ nt	2	3.7	-8	-4	3.1	-1.2	i	0.67
- Cc1cccc(NC(=O)c2ncn3c2C(=O)NC[C@H]3C)c1
→ nt	nt	nt	-10	-3	-2.9	-4.8	i	nt
- CCCc1cc(-c2n[nH]c(=S)n2-c2cccc(C)c2)cs1
→ -12	4	0.7	-57	-79	-20	-8.4	i	0.7
- O=C(Nc1ccc(Cl)cn1)C1CC1
→ -6	-3	-3.8	7	-2	-5.0	-5.0	i	0.64
- Cc1cc(Cc2cc(C)c(N)cc2C)c(C)cc1N
→ 97*	-7	0.9	20	13	2.6	-3.3	nt	0.72
- CCn1c(SCC(=O)c2c(N)n(C3CC3)c(=O)[nH]c2=O)nc2cc(S(N)(=O)=O)ccc21
→ -4	-12	-1.2	3	15	0.5	5.8	i	0.7
- CCOc1ccc(CCN2C(=O)C(=O)N([C@@H](Cc3ccc(O)cc3)CN3CCC[C@H]3CN3C(=O)C(=O)NC[C@@H]3Cc3ccc(O)cc3)C[C@@H]2Cc2ccc(O)cc2)cc1
→ nt	nt	nt	-12	-1	9.5	1.0	i	nt
- Cc1ccc(CN2CCN(C(=O)CC(C)C)CC2)cc1
→ 1	5	1.1	4	10	2.5	-1.4	i	0.68
- O=C(Nc1cccc(F)c1)c1coc(=O)c(Br)c1
→ 3	15	nt	6	12	-4.5	-3.5	i	nt
- CCN1CCCC1CNC(=O)c1ccc2c(=O)n(CCOC)c(=O)[nH]c2c1 (stereo not drawn)
→ -2	1	-48	nt	nt	nt	-0.8	nt	0.72
- CN(CCO)c1ncnc2nc[nH]c12
→ 3	-6	4.1	6	13	-1.9	-0.9	i	0.71
- COc1ccc(-c2noc(C)c2-c2ccc3ccccc3n2)c(O)c1
→ 5	-6	1.8	nt	nt	nt	-0.5	nt	0.67
- CN(c1ccccc1)S(=O)(=O)c1ccc(NC(=O)c2ccco2)cc1
→ -1	-15	0.2	-37	-32	-14	-1.3	i	0.69
- CC(C)C1C(=O)N(Cc2cn(CC3CCCCC3)nn2)CCS(=O)(=O)N1Cc1ccc(-c2cccc(CO)c2)cc1 (stereo not drawn)
→ nt	nt	nt	0	-1	3.2	-1.9	i	nt
- COc1cc2c(cc1OC)CN(CC(=O)Nc1ccccc1C#N)CC2
→ 0	0	-3.2	nt	nt	nt	0.2	nt	0.78
- Cc1cc(-n2c(C)cc(C(=S)N3CCOCC3)c2C)ccc1Br
→ nt	-14	4.5	7	-1	0.1	-0.5	i	0.71
- COc1ccc(NS(=O)(=O)c2ccc3ccccc3c2)c2ncccc12
→ -10	6	nt	11	9	4.7	0.6	i	nt
- COc1cc(Cl)ccc1OCc1cc(C(=O)N2C[C@@H]3CCC[C@H]2C3)no1
→ -3	1	6.6	-2	-17	6.9	4.9	i	0.7
- Cc1cc(O)cc(O[C@H]2OC(CO)[C@H](O)[C@@H](O)[C@H]2O)c1 (stereo partly drawn)
→ 21	-16	3.8	24	23	-4.0	-0.4	i	nt

# Next compounds follow:
# Below each SMILES: ALR H2O2 inh	Beta2AR agonist	UCH37 inh	Ecoli rRNA inh	Ecoli rRNA inh OD600	Ecoli rRNA inh RFP	HNF4A DNA FP	FGF22 binding	Ecoli growth
- CC(/C=C1\SC(=S)N(NC(=O)c2ccc(O)cc2)C1=O)=C\c1ccccc1
→ -4	-16	0.1	-25*	3.3*	9.3*	-2.6	i	0.7
- COc1ccc(C2=C(CN(C)C)C(c3ccccc3)c3ccccc3O2)cc1 (stereo not drawn)
→ -20&-6	11	0.0&2.8	nt	nt	nt	0.4	nt	0.69&0.68
- O=C(CCCCCNC(=O)N1CCn2c1nc1ccccc12)N[C@@H](Cc1ccccc1)C(=O)O
→ 4	-7	1.6	nt	nt	nt	0.2	i	0.68
- O=C(Nc1cnccn1)Nc1ccc(Cl)cc1Cl
→ -2	0	nt	nt	nt	nt	0.0	nt	nt
- CCOC(=O)c1sc2nccc(OC)c2c1N=CNOC
→ -7	1	-26	-6	6	3.2	-3.0	i	0.66
- Cc1nc(SCC(=O)NCCc2ccccc2)c2c(=O)n(C)c(=O)n(C)c2n1
→ -3	-4	2.5	10	18	1.3	4.4	i	0.72
- O=C(NC1CCN(C(=O)NC2CCCCC2)CC1)c1cccc(F)c1
→ 0	-6	1.6	14	20	3.7	-0.6	i	0.69
